# Beta2AR agonist: beta2AR agonists driving receptor internalization, primary screen, cell-based, FAP fluorogen, flow cytometry; Beta-2 adrenergic receptor (Homo sapiens), P07550; Am2.2-beta2AR cells; reference of the scale not given here; response, % (test concentration not listed); hit rate 0.43% among 340,000;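 active means response above a set limit, near 3 SD of response in nonfluorescent compounds, cut at about 42% in these data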;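 further: stock transfer was 100 nL into about 11 µL; a reference agonist was the positive control; negative values mostly stem from fluorescent compounds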
# UCH37 DUB inh: inhibitors of human UCH37 deubiquitinase, primary screen, biochemical, Ub-AMC cleavage, fluorescence; AID 588478, 2011; hit rate 0.33% among 330,000; purified proteasome/UCH37; inhibition, % (test concentration not listed);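 active means mean of two replicates above 20%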;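 further: 0% = compound-free wells with enzyme and 100% = wells lacking proteasome; stock transfer was 100 nL into about 20 µL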
# Target sequence (Q9Y5K5 whole entry, looked up): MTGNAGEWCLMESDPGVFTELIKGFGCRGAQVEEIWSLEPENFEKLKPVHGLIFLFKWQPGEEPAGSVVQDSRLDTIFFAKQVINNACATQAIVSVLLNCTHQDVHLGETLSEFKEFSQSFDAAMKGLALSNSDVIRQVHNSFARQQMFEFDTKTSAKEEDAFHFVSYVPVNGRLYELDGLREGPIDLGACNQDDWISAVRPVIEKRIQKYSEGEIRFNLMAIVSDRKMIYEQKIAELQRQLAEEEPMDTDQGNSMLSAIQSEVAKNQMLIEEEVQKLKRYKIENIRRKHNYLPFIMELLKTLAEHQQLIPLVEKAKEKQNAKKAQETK
#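 System: Proteasome-associated human UCH37 deubiquitinase; Input: 0.15 nM proteasome in added enzyme buffer; Also added: Ub-AMC substrate from 1 µM stock; Incubation: 30 min compound-proteasome preincubation then 25 min substrate reaction, room temperature; Detection: fluorescence, ex 355 nm, em 460 nm; Read-out: % inhibition of Ub-AMC cleavage fluorescence; Benchmarks: no-proteasome and no-compound wells.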
# HNF4A DNA FP: change in binding of human HNF4A to DNA, primary screen, biochemical, fluorescence polarization, FITC-DNA. Hepatocyte nuclear factor 4-alpha (Homo sapiens), P41235. 1 h. activity change, % at 10 µM. hit rate 0.3% among 360,000. AID 1224865, 2016; in the data active means activity change above about 30%, passing the limit was not always enough;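 further: controls were the assay level and a saturating level of protein; the project sought stronger binding though the title names inhibitors; some compounds called inactive have numbers as strong as hits; positive values seem to mean higher polarization but the record does not say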
# ALR H2O2 inh: inhibitors of human ALR sulfhydryl oxidase, primary screen, biochemical, H2O2 detection, HRP-luminol luminescence, single point | FAD-linked sulfhydryl oxidase ALR (Homo sapiens), P55789 | purified ALR, DTT oxidation | inhibition, % (test concentration not listed) | hit rate 3.8% among 290,000 | AID 485317, 2010;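 active means mean and each replicate at 75% or more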;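 further: stock transfer was 7.5 nL into about 7.5 µL; 0% = neutral wells and 100% = wells with inactivated enzyme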
# Target sequence (P55789 whole entry, looked up): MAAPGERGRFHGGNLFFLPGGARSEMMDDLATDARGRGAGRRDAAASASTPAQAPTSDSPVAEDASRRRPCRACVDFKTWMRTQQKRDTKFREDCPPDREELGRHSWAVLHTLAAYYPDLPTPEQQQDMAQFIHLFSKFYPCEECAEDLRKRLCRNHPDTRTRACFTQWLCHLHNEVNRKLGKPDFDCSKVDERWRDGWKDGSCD
# LANA-H2B inh: blockers of LANA interaction with H2A/H2B – biochemical, FP readout, HTS, primary screen | Protein LANA1 (Human herpesvirus 8 type P (isolate GK18)), Q9QR71 | AID 2629, 2010 | hit rate 0.6% among 320,000 | cell-free LANA-H2A/H2B peptide, fluorescence polarization | inhibition, % (no concentration beside the values); in the data active means inhibition mostly above about 10%, no sharp cut-off; inactive means mostly below about 6.7%;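 further: stock transfer was 7.5 nL into about 10 µL; 0% = median of vehicle wells and 100% = median of positive control wells; one replicate is shown; the record names a cut of 25% in any replicate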
# FGF22 binding: binders of human FGF22 protein, primary screen, FGF22 synaptogenesis inhibitor project, biophysical, thermal shift, single point; hit rate 1.5% among 340,000; Fibroblast growth factor 22 (Homo sapiens), Q9HCT0; recombinant FGF22 thermal shift, SYPRO orange fluorescence; percent of sucrose octasulfate shift, DMSO zero; calls only at 9.99 µM; AID 651658, 2012;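 active means melting point raised past a set limit in the mean and every replicate; three in four hits are not shown here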
# Target sequence (Q9HCT0 whole entry, looked up): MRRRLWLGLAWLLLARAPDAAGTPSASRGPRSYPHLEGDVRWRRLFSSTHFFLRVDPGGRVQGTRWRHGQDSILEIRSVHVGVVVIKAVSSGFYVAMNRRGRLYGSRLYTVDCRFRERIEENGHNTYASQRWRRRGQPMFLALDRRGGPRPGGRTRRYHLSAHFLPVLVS
# E coli growth: E. coli growth inhibition, primary screen, OD600; Escherichia coli growth, 23 h; stronger effect = lower value; OD600 absorbance (test concentration not listed); hit rate 0.21% among 330,000;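 active means OD600 absorbance below the run mean of sample wells minus 3.6 SD, in any replicate, cut at about 0.56 in these data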;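 further: stock transfer was 300 nL into about 60 µL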
# * = called active by the depositor; i = inactive; nt = no result given; & = joins results of further samples.
no.	smiles	Beta2AR agonist	UCH37 DUB inh	HNF4A DNA FP	ALR H2O2 inh	LANA-H2B inh	FGF22 binding	E coli growth
1	CN(C)S(=O)(=O)c1ccc(Cl)c(NC(=O)CN2CCN(c3ccccn3)CC2)c1	-14	4.6	-4.0	nt	nt	i	0.65
2	COc1ccc(S(=O)(=O)N2Cc3ccccc3CC2C(=O)Nc2nccs2)cc1 (stereo unspecified)	5	5.2	-0.6	-2	3.0	nt	0.68
3	CN1CCN(c2c(F)cc3c(=O)c(C(=O)O)cn4c3c2OCN4C)CC1	-3	-150	-0.4	-28	1.7	i	0.07*
4	COCc1cc(C)nc(SCc2ccc(Cl)cc2)c1C#N	6	-1.2	3.9	8	-1.0	i	0.67
5	O=C(Nc1cc(Cl)ccc1N1CCOCC1)c1ccc(N2CCCC2=O)cc1	-4	-34	-2.0	nt	3.2	i	0.64
6	CS(=O)(=O)NCCSCc1ccco1	2	1.4	-3.0	0	2.5	i	0.69
7	Cc1ccc2c(CC(=O)NCCc3ccc(S(N)(=O)=O)cc3)coc2c1	7	3.8	-6.1	-6	-4.7	i	0.7
8	C=CCOC(=O)C1=C(C)NC(=O)NC1c1ccc(OCC)cc1 (stereo unspecified)	-11	-1.8	3.5	-7	4.0	i	0.61
9	CCOC(=O)Nc1cc(NC(=O)OCC)ncn1	-2	-1.3	0.6	nt	nt	i	0.67
10	COc1ccc2c(COC(=O)CNC(=O)C34CC5CC(CC(C5)C3)C4)cc(=O)oc2c1	-4	-231	-0.6	-26	-3.1	i	0.71
11	CCOC(=O)Cc1nnc(NC(=O)Nc2ccccc2)s1	-1	1.4	2.1	-1	0.6	nt	0.76
12	COc1ccc(CCN(C)C(=O)Cn2c(=O)oc3ccccc32)cc1OC	4	-0.2	0.1	nt	-1.4	i	0.67
13	COC(=O)c1ccc(CSC2=NC[C@@H]3[C@@H]4C(=O)N(C)C(=O)[C@@H]4[C@](Cc4ccccc4)(C(=O)OC)N23)cc1	8	0.6	5.6	nt	nt	nt	0.68
14	COCCNC(=S)N1CCN(c2cccc(C(F)(F)F)c2)CC1	-1	2.2	-3.4	2	2.9	i	0.65
15	O=C(Nc1cc(C(F)(F)F)ccc1F)C1CCCCC1	-15	2.9	1.7	-6	1.2	i	0.71
16	O=C(O)C1=C[C@H](C2CC2)C[C@H](OCCCCO)O1	-4	3.2	3.3	9	5.3	i	nt
17	COc1ccc2c(c1OC)C(=O)OC2Nc1nc(-c2cc3cc([N+](=O)[O-])ccc3oc2=O)cs1 (stereo unspecified)	-26	16	0.0	17	-3.0	i	0.65
18	CC(C)(C)NC(=O)CSc1nc2ccccc2c(=O)[nH]1	2	0.7	2.2	1	5.3	i	0.65
19	CCOc1ccc(CNC(=O)c2ccc(Sc3ccc(C)cc3)c(NC(C)=O)c2)cc1	-1	-0.4	-1.5	-1	1.4	nt	0.74
20	O=C1C(=O)N(Cc2ccncc2)C(c2cccc(O)c2)/C1=C(\O)c1ccc2c(c1)OCCO2 (stereo unspecified)	8	8.7	0.2	21	0.4	i	0.63

# Another view of some results above:
[1] CN(C)S(=O)(=O)c1ccc(Cl)c(NC(=O)CN2CCN(c3ccccn3)CC2)c1
- Beta2AR agonist: -14
- UCH37 DUB inh: 4.6
- HNF4A DNA FP: -4.0
- ALR H2O2 inh: nt
- LANA-H2B inh: nt
- FGF22 binding: i
- E coli growth: 0.65
[2] COc1ccc(S(=O)(=O)N2Cc3ccccc3CC2C(=O)Nc2nccs2)cc1 (stereo unspecified)
- Beta2AR agonist: 5
- UCH37 DUB inh: 5.2
- HNF4A DNA FP: -0.6
- ALR H2O2 inh: -2
- LANA-H2B inh: 3.0
- FGF22 binding: nt
- E coli growth: 0.68
[17] COc1ccc2c(c1OC)C(=O)OC2Nc1nc(-c2cc3cc([N+](=O)[O-])ccc3oc2=O)cs1 (stereo unspecified)
- Beta2AR agonist: -26
- UCH37 DUB inh: 16
- HNF4A DNA FP: 0.0
- ALR H2O2 inh: 17
- LANA-H2B inh: -3.0
- FGF22 binding: i
- E coli growth: 0.65
[5] O=C(Nc1cc(Cl)ccc1N1CCOCC1)c1ccc(N2CCCC2=O)cc1
- Beta2AR agonist: -4
- UCH37 DUB inh: -34
- HNF4A DNA FP: -2.0
- ALR H2O2 inh: nt
- LANA-H2B inh: 3.2
- FGF22 binding: i
- E coli growth: 0.64

# Next entries.
no.	smiles	Beta2AR agonist	UCH37 DUB inh	HNF4A DNA FP	ALR H2O2 inh	LANA-H2B inh	FGF22 binding	E coli growth
21	CCCCNC(=S)NNC(=O)c1c(C)nc2ccccn12	-10	5.5	-3.3	34	0.6	i	0.71
22	O=c1oc2c(CN3CCOCC3)c(O)ccc2c2ccccc12	1	4.7	-0.8	45	2.1	nt	0.63
23	COC(=O)Nc1ccc2c(c1)N(C(=O)CCN1CCN3CCCC3C1)c1ccccc1CC2 (stereo unspecified)	-2&-8	1.7&-3.2	1.9&-2.5	-4&2	2.2&-1.9	i	0.71&0.75
24	CCOc1ccc(S(=O)(=O)N(C)c2ccc(OCC(=O)N3c4ccc(C)cc4C4CN(C)CCC43)cc2)cc1 (stereo unspecified)	0	1.0	0.2	-11	2.8	nt	0.7
25	O=C(CN1CCN(c2ccc(Cl)cc2)CC1)NCc1ccccc1	0	4.1	-2.8	16	-10	nt	0.69
26	COc1cc(/C=N/NC(=O)c2sc3nc(C)cc(C)c3c2N)ccc1O	22	nt	-1.2	37	1.5	i	nt
27	COc1ccccc1CNC(=O)CN1C(=O)NC(C)(c2ccc(C)cc2)C1=O (stereo unspecified)	14	1.4	1.7	-5	2.1	i	0.67
28	O=C(c1cnc2sccn2c1=O)N1CCc2ccccc2C1	-1	-1.0	-2.9	-6	-7.8	nt	0.63
29	COc1ccc2[nH]cc(C(=O)CN3CCCCC3)c2c1	1	-1.1	1.4	34	-4.2	nt	0.72
30	OCCCNC(=S)Nc1ccc(Br)cc1Cl	-4	-1.7	0.1	nt	1.1	i	0.71
31	COc1ccc([C@@H]2[C@@H]3C(=O)N(C(C)(C)C)C(=O)[C@@H]3[C@]3(Cc4ccccc4)C(=O)N(c4cccc(F)c4)C(=O)N23)cc1	-8	6.2	-1.6	0	-1.1	i	nt
32	NS(=O)(=O)c1ccc(CCNC(=O)C(=O)NCC2OCCN2C(=O)c2ccc3c(c2)OCO3)cc1 (stereo unspecified)	13	6.1	-2.7	0	-0.7	i	0.67
33	COCCCn1c(C)csc1=Nc1cccnc1	-1	-0.8	2.4	61	9.3	i	0.68
34	O=C(CSc1nnc(-c2cccnc2)o1)Nc1ccccc1Br	5	-1.4	3.2	-10	-0.1	i	0.67
35	N#Cc1cnn2c1nc(N1CCCCC1)c1ccccc12	-1	-109	2.5	-7	2.0	nt	0.71
36	COc1cccc(OCC(=O)NNC(=O)c2ccc(-c3ccccc3)cc2)c1	11	5.1	-3.3	-18	0.6	nt	0.71

# Given with values under each structure: 4 of the compounds above.
# Second line of a record: Beta2AR agonist | UCH37 DUB inh | HNF4A DNA FP | ALR H2O2 inh | LANA-H2B inh | FGF22 binding | E coli growth
27) COc1ccccc1CNC(=O)CN1C(=O)NC(C)(c2ccc(C)cc2)C1=O (stereo unspecified)
 : 14 | 1.4 | 1.7 | -5 | 2.1 | i | 0.67
28) O=C(c1cnc2sccn2c1=O)N1CCc2ccccc2C1
 : -1 | -1.0 | -2.9 | -6 | -7.8 | nt | 0.63
29) COc1ccc2[nH]cc(C(=O)CN3CCCCC3)c2c1
 : 1 | -1.1 | 1.4 | 34 | -4.2 | nt | 0.72
30) OCCCNC(=S)Nc1ccc(Br)cc1Cl
 : -4 | -1.7 | 0.1 | nt | 1.1 | i | 0.71

# Screens as filed in PubChem BioAssay.

# A portion of the library; count on the stated rates, not on these rows.
